# Compound activity: PubChem BioAssay, Center for Chemical Genomics, University of Michigan
# TAR Tat displ: HIV-1 TAR-Tat binding disruption; actives 0.6% (n = 100,000); AID 1259389; z-score (concentration not given with the values); HIV-1 TAR RNA, Tat peptide displacement FRET; stronger effect = higher value;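 also: score is relative to mean and SD of negative controls; some compounds called inactive have numbers as strong as hits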
# CDC25B-CDK2 inh: human CDC25B-CDK2/CyclinA binding inhibition; P30305+P24941; HTRF CDC25B-CDK2/CyclinA binding, anti-His/anti-Flag; stronger effect = higher value; z-score (test concentration not listed); actives 0.72% (n = 94,000); AID 1259370;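 also: score is relative to mean and SD of negative controls; strong numbers were not always called active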
# * = called active by the depositor; nt = no result given; & = joins results of further samples.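 The calls were made as follows: active = z-score from 3 up in half or more of its runs; inactive = the rest.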
SMILES	TAR Tat displ	CDC25B-CDK2 inh
CCCc1nn2c(=O)cc(CSc3ccccc3NC(=O)C(C)C)nc2s1	-1.9	nt
c1cncc(-c2nn3c(C4COc5ccccc5O4)nnc3s2)c1 (centres undefined)	0.79	-1.5
Cc1nnc2c3ccccc3c(N3CCCC3)nn12	0.29	-0.91
Cc1ccc2c(c1)NC(c1ccc3c(c1)OCO3)C1=C(CC(c3ccccc3)CC1=O)N2 (centres undefined)	nt	-0.74
COc1ccc(Cl)cc1N1C(=O)c2ccncc2C1=O	-0.44	-1.2
CCn1c(=O)c2sccc2n2c(CCCC(=O)NCCc3c[nH]c4ccccc34)nnc12	0.12	nt
O=C(O)c1nccnc1C(=O)NCc1csc(-c2cccs2)n1	nt	-2
O=C(O)CSc1ccccc1C(=O)O	0.82	-1
CCOC(=O)Nc1nc2ccccc2[nH]1	2.2	-0.85
CN1CCN(C(=O)CSc2ccsc2[N+](=O)[O-])CC1	1.4	-0.85
COc1ccc(CN2CCN(Cc3cc(OC)c4c(c3)OCO4)CC2)cc1	nt	-0.59
COc1ccc(OCCNC(=O)c2cccs2)cc1	nt	-3.3
CC(C)c1ccc(S(=O)(=O)N2CCCN(S(=O)(=O)c3ccc(C(C)C)cc3)CC2)cc1	0.37	1.7
O=C(NNc1ncccc1-n1cccc1)c1ccc(Cl)cc1	nt	-0.51
CC(C)(C)c1ccc(S(=O)(=O)n2nc(-c3ccccc3)cc2N)cc1	2.1	-1
CCOC(=O)N1CCN(S(=O)(=O)c2ccc3c(c2)CCN3C(C)=O)CC1	-0.42	-2.6
Cc1cc(Nc2c(-c3ccccc3)c(=O)c2=O)ccc1Br	-0.29	nt
Nc1ccc(Oc2ccc(Cl)cc2C2CCCCC2)nc1	nt	-1.2
Cc1c(C(=O)N(C(C)C)C2CCCCC2)sc2nc3n(c(=O)c12)CCCC3	0.34	nt
CSc1nc2ccc(NS(=O)(=O)c3ccc(Br)s3)cc2s1	nt	1.2

# One compound at a time (already shown). Order of values: TAR Tat displ | CDC25B-CDK2 inh
# O=C(O)c1nccnc1C(=O)NCc1csc(-c2cccs2)n1 is listed with nt | -2
# Nc1ccc(Oc2ccc(Cl)cc2C2CCCCC2)nc1 is listed with nt | -1.2

# (next part)
SMILES	TAR Tat displ	CDC25B-CDK2 inh
CCC1CN(C(=O)Nc2ccc3c(c2)OCCO3)c2ccccc2S1 (centres undefined)	1.3	nt
Cc1cccc(CSc2nc3c(c(=O)[nH]2)C(c2cccc(O)c2)CC(=O)N3)c1 (centres undefined)	1.1	-2.6
O=C(CSc1nc2c(c(C(F)(F)F)n1)CCc1ccccc1-2)NCCN1CCOCC1	1.2	1.1
O=C(CSc1nnc2ccc3ccccc3n12)OCCOc1ccccc1	0.01	1.6
COc1ccc(NC(c2nnc(-c3ccccc3)o2)c2ccccc2F)c(OC)c1 (centres undefined)	-0.7	-0.67
CCOC(=O)/C(C#N)=C\c1ccc(-n2c(C)ccc2C)cc1	nt	-0.4
CN1C(=O)C(=Cc2cn(-c3ccccc3)nc2-c2cccs2)C(=O)N(C)C1=O	nt	-2.6
O=C(CCc1ccncc1)NNC(=O)N1Cc2ccccc2Oc2ccc(Cl)cc21	nt	-2.1
Cc1ccc(S(=O)(=O)N2/C(=C\COc3ccccc3)C(N3CCN(C)CC3)c3ccccc32)cc1 (centres undefined)	1.2	-1.3
Clc1ccc(-c2cn3ccc4ccccc4c3n2)cc1	0.3	-0.63
O=C1C2N=NN(Cc3ccccc3)C2C(=O)N1c1ccc(Cl)cc1 (centres undefined)	0.49	0.86
CCOC(=O)C1CCN(c2c(NC3CCN(C(=O)OCC)CC3)c(=O)c2=O)CC1	1.8	-0.24
COc1ccc(OC)c(S(=O)(=O)NCCc2c(C)[nH]c3ccc(OC)cc23)c1	-0.55	-0.74
Cc1cc(NCCO)nc2ccccc12	-0.37	-0.71
COc1cnc(CSc2nncn2C)cc1OCC(=O)N1CCc2ccccc21	1.1	nt
O=c1cc(CSc2ncn[nH]2)[nH]c2c(Cl)cccc12	0.11	nt
O=C(CCc1nc2sc3c(c2c(=O)[nH]1)CCCCC3)Nc1ccccc1	0.84	nt
CCC(C)Nc1sc(S(=O)(=O)CC)nc1S(=O)(=O)c1ccc(Cl)cc1 (centres undefined)	-0.94	-1.7
CC1=C(C)C/S(=N\S(=O)(=O)c2ccccc2)N(S(=O)(=O)c2ccccc2)C1 (centres undefined)	0.7	-0.53
O=C(Nc1ccccc1Br)c1cc(-c2cccnc2)nc2ccccc12	1.2	nt
CCOc1ccc(Cc2nnc(N)s2)cc1OCC	nt	-1.9
COc1ccc(C2CS(=O)(=O)CS(=O)(=O)C2)cc1	2.4	0.85
CCCOC(=O)C1=C(C)NC2=C(C(=O)CC(C)(C)C2)C1c1ccc(OC(C)=O)cc1 (centres undefined)	0.5	-0.75
Cc1nn(-c2ccc(N3CCOCC3)nn2)c(C)c1CCC(=O)Nc1ccc2c(c1)OCO2	-1.4	nt
CCc1nc2c(-c3ccc(C)cc3)noc2c(=O)[nH]1	1.4	-3.2
CCOC(=O)C1=C(C)Nc2nc(SCc3cccnc3)nn2C1c1ccc(Br)cc1 (centres undefined)	0.76	-0.42
Cc1nc(COc2cc(C)c(Cl)c(C)c2Cl)cs1	nt	-1.3
CS/C(=C(/C#N)S(=O)(=O)C(C)C)N1CCOCC1	nt	-1.3
CCN(CC)CCN1C(=O)c2cc3oc(C)cc3n2CC1(C)C(=O)NC1CCCCC1 (centres undefined)	1.9	nt
COc1ccc(OC)c(C(=O)CC2(O)C(=O)Nc3c(C)cccc32)c1 (centres undefined)	1.7	nt
COc1cccc(-n2c(C)cc(C#N)c2C)c1	-0.22	-0.19
Cc1ccc(C(=O)CSc2ncnc3sc(C)c(C)c23)cc1	1.8	-2.1
N#Cc1nc(-c2ccc(Cl)cc2)oc1N1CCOCC1	2.4	-0.3
COc1cc(NC(=O)Cn2c(=O)oc3cc(S(=O)(=O)NC4CCCC4)ccc32)cc(OC)c1	-2.4	nt
O=C(Cn1ncn2nc(-c3cccs3)cc2c1=O)N1CCN(c2ccccc2)CC1	-2.3	-4.4
Cc1ccc(S(=O)(=O)Nc2ccccc2N2C(=O)c3cccc4cccc(c34)C2=O)cc1	nt	-1.7
COc1ccc2c(c1)CCc1c-2n[nH]c1C(=O)Nc1cc(Cl)ccc1OC	1.5	nt
CCc1ccc(Nc2nn3c(=O)c4sccc4nc3s2)cc1	-0.85	nt
CCSCCOC(=O)C1=C(C)NC2=C(C(=O)CC(C)(C)C2)C1c1cccc(C)c1 (centres undefined)	1.6	nt
CCn1c(=O)c(C)nc2cc(-c3noc(C(NS(=O)(=O)c4ccc(C)cc4)C(C)C)n3)ccc21 (centres undefined)	-0.21	nt

# More records:
# Screens in order – TAR Tat displ | CDC25B-CDK2 inh
> Cc1ccc(NS(=O)(=O)c2ccc(-c3ccc(=O)[nH]n3)o2)c(Cl)c1
 : 0.25 | nt
> Cc1nn(-c2nncc(-c3ccc(Cl)cc3)n2)c2c1C(c1ccc(C(=O)O)cc1)CC(=O)N2 (centres undefined)
 : 2.1 | -2.6
> CCCn1c(C(F)(F)F)nc2c3nsnc3ccc21
 : 0.26 | -1.2
> COc1ccc(-c2noc(C(C)NS(=O)(=O)c3ccc(OC)cc3)n2)cc1 (centres undefined)
 : 0.57 | -0.09
> Cc1ccc(-c2cc(-c3ccccc3)nc(N)c2C#N)o1
 : -4.6 | -1.3
> c1ccc(CNc2nc3ccccc3c3nc(-c4cccnc4)nn23)nc1
 : 0.82 | 1.5
> O=C(CS(=O)(=O)c1ccc(Cl)cc1)Nc1nc(-c2nc3ccccc3s2)cs1
 : -0.48 | nt
> CC1(C)CC(=O)C2=C(C1)Nc1cc3c(cc1C2c1ccc(F)cc1)OCO3 (centres undefined)
 : 0.53 | 0.46
> CSc1c(-c2ccccn2)c(N)nn1C(=O)c1cccs1
 : nt | 1.3
> COc1ccc(CCN2C(=O)NC(c3ccc(F)cc3)(C(F)(F)F)C2=O)cc1 (centres undefined)
 : 1.2 | -0.22
> CCOC(=O)c1sc2nc(N3CCCC3)c3c(c2c1N)CCCC3
 : 0.55 | -1.6
> N#CCN1CCN(c2nc3ccc(Cl)cc3s2)CC1
 : nt | -0.63
> COC(=O)c1ccc(Cl)cc1N(CCCC#N)S(=O)(=O)c1cccc(C(F)(F)F)c1
 : nt | -1.4
> COc1ccc(OC)c(NC(=O)c2sc3ccccc3c2Cl)c1
 : -0.35 | -0.91
> Cc1noc(-c2c(C)noc2C)c1C(=O)NNC(=O)c1c(F)cccc1Cl
 : nt | -1.6
> S=c1[nH]nc(N2CCCCC2)c2ccccc12
 : 1.8 | 1
> O=C(NC1CCCC1)C1CCN(c2nnc(N3CCCCC3=O)s2)CC1
 : 0.96 | nt
> COc1ccc2c(c1OC)C(=O)OC2Nc1cccc(C)n1 (centres undefined)
 : 1.1 | -1.5
> COc1ccc(NC(=O)N2CCN(c3ncccn3)CC2)cc1
 : 0.28 | 0.34
> COc1cc(NS(=O)(=O)c2ccc(-c3cnc(C)o3)cc2)cc(OC)c1
 : 0.22 | nt
> CC1SC2(CCCCC2)N(c2ccc(Cl)cc2)C1=O (centres undefined)
 : nt | -1.6
> CC1=C(C(=O)OCc2ccccc2)C(c2cccc(O)c2)C2=C(CC(C)(C)CC2=O)N1 (centres undefined)
 : 1.8 | -1.3
> CCC1(C)Cc2c(sc3nc(SCC(=O)N4CCC(C)CC4)nc(N)c23)CO1 (centres undefined)
 : 0.94 | -1.2
> COc1ccc(-c2nnc(SCc3c(F)cccc3Cl)o2)cc1
 : 0.87 | -1.7
> CSc1ccc(CNC(=O)c2cnc3sc(N4CCOCC4)nn3c2=O)cc1
 : 1.1 | nt
> Cc1ccc2oc(-c3cc(N)ccc3Cl)nc2c1
 : 0.27 | -1.4
> COc1ccc(C(O)(CC(C)C)C(CN2CCCC2)c2ccccc2)cc1 (centres undefined)
 : 1.1 | -1.2
> CC(=O)OC[C@H]1O[C@@H](OCc2ccccc2)[C@H](OC(C)=O)[C@@H](OC(C)=O)[C@@H]1OC(C)=O
 : nt | -0.63
> Cn1c(=O)oc2cc(S(=O)(=O)N3CCC(C(=O)N4CCc5ccccc54)CC3)ccc21
 : nt | -1.2
> CN(C)CCCN(C(=O)C1=COCCO1)c1nc2ccc(F)cc2s1
 : nt | -1.2
> COc1cc(Cl)c(NS(=O)(=O)c2cc(-c3csc(C)n3)ccc2C)c(OC)c1
 : 0.51 | nt
> O=C(CN1CCN(c2ccccc2)CC1)Nc1c2c(nc3ccccc13)CCC2
 : 0.46 | 0.29
> Cc1ccccc1CSc1nc2n(n1)C(c1cccs1)C1=C(CC(C)(C)CC1=O)N2 (centres undefined)
 : 0.81 | -12
> O=C(CSc1nccn(-c2ccccc2)c1=O)Nc1ccc(F)cc1F
 : -0.06 | nt
> CC(C)(C)CC(C)(C)NC(=O)C(Cl)Cl
 : nt | -0.64
> Cc1cc(C)c2c(-n3cccc3)c(C(=O)N3CC(C)CC(C)C3)sc2n1 (centres undefined)
 : -2.3 | -0.68
> CCOC(=O)COc1ccc2c(=O)c(Oc3cc(C)c(Cl)c(C)c3)coc2c1
 : nt | -3.1
> O=C(c1ccccc1)c1cn(Cc2ccc(F)cc2)c2cc3c(cc2c1=O)OCCO3
 : 0.16 | 2.5
> COc1ccc(CNCc2noc3ccccc23)cc1
 : 0.63 | nt
> COC(=O)Cn1ncc2c3ccccc3n(Cc3ccccc3)c2c1=O
 : -1.1 | -0.89
> Cc1cccc(Nc2c3c(nc4ncnn24)CCC3)c1
 : 0.85 | nt
> Cn1cccc1Cc1nnc(SCC(=O)Nc2ccccc2)n1-c1ccc(F)cc1
 : -0.54 | -1
> Cc1cc(C(=O)ONC(=O)c2ccccc2)nn1-c1cc(Cl)ccc1Cl
 : nt | -1.5
> O=S(=O)(Cc1cccc(C(F)(F)F)c1)N1CCCCC1
 : nt | -1.6
> COc1cc(Br)c(C(=O)O)cc1OC
 : nt | -0.77
> Cc1ccc(CSc2nnc(-c3ccc4c(c3)OCO4)o2)cc1
 : 1.1 | -3.5
> CC(=O)OC[C@H]1O[C@@H](N2CCCCC2)[C@H](OC(C)=O)[C@@H](OC(C)=O)[C@@H]1OC(C)=O
 : nt | 0.84
> Cc1cccc(NC(c2ccncc2)c2ccc3cccnc3c2O)n1 (centres undefined)
 : nt | -1.7
> Cc1cccc(-c2nc(SCc3cc(=O)c4c(C)cc(C)cc4[nH]3)n[nH]2)c1
 : -4.1 | nt
> O=S(=O)(Nc1ccc(F)cc1F)c1ccc2c(c1)OCCO2
 : 1.4 | -2.1
> O=C(O)/C=C/C(=O)Nc1ccc2c(c1)C(=O)c1ccccc1C2=O
 : nt | 6.1*
> CCOC(=O)C12C(=O)OC(C)(C)C1C2(CC)C(=O)c1ccc(Br)cc1 (centres undefined)
 : 0.06 | 1.8&-0.75
> COc1ccccc1C(=O)OCc1cc(=O)n2c3c(sc2n1)CCCC3
 : 1.1 | nt
> Cc1cccc(CSC2=NS(=O)(=O)c3ccccc3N2)c1
 : -0.19 | nt
> CCOC(=O)c1sc2ccccc2c1S(=O)(=O)Nc1ccc(F)cc1F
 : 0.44 | nt
> Cc1cc(N2CC(C(=O)O)CC2=O)ccc1Br (centres undefined)
 : nt | 0.72
> COc1ccc(Cn2c(SCc3cc(=O)n4ccccc4n3)nc3ncccc3c2=O)cc1
 : 1.1 | -2.1
> CCc1ccc(NC(=O)NC(c2nc3cccnc3n2C(C)C)C(C)C)cc1 (centres undefined)
 : 1.5 | nt
> CC1CCN(Cc2c(O)ccc3c2oc(=O)c2ccccc23)CC1
 : 0.26 | -2.3

# Four of the compounds above, as labelled records:
Cc1cccc(Nc2c3c(nc4ncnn24)CCC3)c1
  TAR Tat displ: 0.85
  CDC25B-CDK2 inh: nt
Cn1cccc1Cc1nnc(SCC(=O)Nc2ccccc2)n1-c1ccc(F)cc1
  TAR Tat displ: -0.54
  CDC25B-CDK2 inh: -1
Cc1cc(C(=O)ONC(=O)c2ccccc2)nn1-c1cc(Cl)ccc1Cl
  TAR Tat displ: nt
  CDC25B-CDK2 inh: -1.5
O=S(=O)(Cc1cccc(C(F)(F)F)c1)N1CCCCC1
  TAR Tat displ: nt
  CDC25B-CDK2 inh: -1.6
